# Bioassay records from PubChem BioAssay.
# Env fusion inh = inhibitors of HIV-1 Env-driven cell-cell fusion, primary screen, HeLa-JRFL effector, CEM21 target cells, luciferase | inhibition, % at 12.3 µM | 1.1% of 360,000 active | AID 651610, 2012;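 active means mean replicate inhibition score of at least 50 and every replicate individually at or above 50; inconclusive means only one of the two criteria met; inactive means mean below 50 and not all replicates reaching 50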;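 further: 0% = plate neutral controls and 100% = maraviroc near 300 nM; one replicate is shown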
# UUG fidelity = modulators of yeast start codon fidelity, primary screen, whole organism, S. cerevisiae, single point, plate reader. S. cerevisiae UUG-firefly luciferase reporter, luminescence/redox ratio. activity score, % at 18.7 µM. 0.13% of 350,000 active;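 active means replicate mean at a twofold rise or more, about +100% in these data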;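 further: firefly luciferase made from a UUG start codon reports start codon fidelity; reporter light over untreated wells divided by growth signal over untreated wells; some hits fall short of that in this replicate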
# An asterisk follows results filed as active; ? = inconclusive; [ ] = dose if it differs, or a comment.
no. | molecule | Env fusion inh | UUG fidelity
1 | C[C@H](CO)N1C[C@H](C)[C@H](CN(C)C(=O)c2ccccc2)OCCCC[C@H](C)Oc2ccc(NS(=O)(=O)c3ccc(F)cc3)cc2C1=O | -105.4[16.7 µM] | 45.0
2 | C[C@@H]1CCCCO[C@H](CN(C)CC2CC2)[C@@H](C)CN([C@H](C)CO)C(=O)c2cc(NS(=O)(=O)c3cccs3)ccc2O1 | -4.1[16.7 µM] | 4.4
3 | CC(C)C#Cc1cnc2c(c1)C(=O)N([C@H](C)CO)C[C@H](C)[C@H](CN(C)C(=O)Nc1cc(F)ccc1F)O2 | -4.7[16.7 µM] | 23.3
4 | Cc1noc(C)c1NC(=O)Nc1ccc2c(c1)C(=O)N([C@@H](C)CO)C[C@@H](C)[C@H](CN(C)C(=O)Nc1ccccc1)OCCCC[C@H](C)O2 | -1.2[16.7 µM] | 25.6
5 | COc1ccc(CN(C)C[C@@H]2OCCCC[C@H](C)Oc3ccc(NS(C)(=O)=O)cc3C(=O)N([C@@H](C)CO)C[C@@H]2C)cc1 | 9.4[16.7 µM] | 3.5
6 | CNC(=O)C[C@@H]1CC[C@H]2[C@@H](COc3ccc(NC(=O)Nc4cc(C)cc(C)c4)cc3C(=O)N2C)O1 | 4.7[16.7 µM] | -5.7
7 | Cc1noc(C)c1NC(=O)Nc1ccc2c(c1)C(=O)N([C@@H](C)CO)C[C@@H](C)[C@H](CN(C)C(=O)CCCN(C)C)OCCCC[C@H](C)O2 | 17.1[16.7 µM] | 22.0
8 | C[C@H](CO)N1C[C@H](C)[C@H](CN(C)C)Oc2cc(-c3ccc(C#N)cc3)ccc2S1(=O)=O | -14.5[16.7 µM] | -1.8
9 | C[C@@H]1CN([C@H](C)CO)C(=O)Cc2cc(NC(=O)Cc3ccccc3)ccc2O[C@H]1CN(C)Cc1ccc(-c2ccccc2)cc1 | -23.5[16.7 µM] | 11.9
10 | C[C@H](CO)N1C[C@H](C)[C@H](CN(C)C(=O)Nc2cccc3ccccc23)OCCCC[C@H](C)Oc2ccc(NS(=O)(=O)c3ccc(Cl)cc3)cc2C1=O | -13.1[16.7 µM] | -8.9
11 | Cc1ccc(S(=O)(=O)Nc2ccc3c(c2)C(=O)N([C@@H](C)CO)C[C@@H](C)[C@@H](CN(C)C(=O)Nc2c(C)noc2C)OCCCC[C@H](C)O3)cc1 | -24.0[16.7 µM] | -6.1
12 | C[C@@H]1CN([C@H](C)CO)C(=O)c2cc(C#CCN(C)C)cnc2O[C@H]1CN(C)C(=O)Cc1ccccc1 | 1.2[16.7 µM] | 3.4
13 | CO[C@@H]1CN(C)C(=O)c2ccc(NC(C)=O)cc2OC[C@H](C)N(C(=O)Cc2cccnc2)C[C@@H]1C | 1.0[16.7 µM] | 6.1
14 | C[C@H](CO)N1C[C@H](C)[C@H](CN(C)C(=O)NC2CCCC2)Oc2cc(-c3cncnc3)ccc2S1(=O)=O | -14.1[16.7 µM] | -16.9
15 | Cc1ccc(S(=O)(=O)N[C@@H]2CC[C@H](CC(=O)NCCc3ccncc3)O[C@H]2CO)cc1 | 8.9[16.7 µM] | 3.4
16 | C[C@@H]1CCCCO[C@H](CN(C)C(=O)NC2CCCCC2)[C@H](C)CN([C@@H](C)CO)C(=O)c2cc(NC(=O)Cc3ccccc3)ccc2O1 | 13.9[16.7 µM] | -4.4
17 | Cc1ccccc1-c1cnc2c(c1)C(=O)N([C@@H](C)CO)C[C@H](C)[C@@H](CN(C)C(=O)c1ccc(F)cc1)O2 | 8.2[16.7 µM] | 13.9
18 | C[C@@H]1CN([C@@H](C)CO)C(=O)c2cc(NC(=O)Nc3ccccc3)ccc2O[C@@H](C)CCCCO[C@@H]1CN(C)S(=O)(=O)c1ccc(Cl)cc1 | -6.9[16.7 µM] | -8.9
19 | Cc1noc(C)c1S(=O)(=O)Nc1ccc2c(c1)C(=O)N([C@@H](C)CO)C[C@H](C)[C@@H](CN(C)C(=O)Nc1cccc3ccccc13)OCCCC[C@H](C)O2 | -0.5[16.7 µM] | 13.9
20 | CNC(=O)C[C@H]1CC[C@H]2[C@H](COc3ccc(NC(=O)c4ccccc4OC)cc3C(=O)N2C)O1 | 18.2[16.7 µM] | 15.2
21 | C[C@H]1CN([C@@H](C)CO)C(=O)c2cc(NC(=O)Nc3ccc4c(c3)OCO4)ccc2O[C@@H]1CN(C)Cc1ccc2c(c1)OCO2 | 2.2[16.7 µM] | 9.9
22 | C[C@H](CO)N1C[C@H](C)[C@@H](CN(C)C(=O)Nc2ccc3c(c2)OCO3)Oc2ccc(NC(=O)Nc3ccccc3)cc2CC1=O | 3.5[16.7 µM] | 3.7
23 | C[C@@H]1CN([C@@H](C)CO)S(=O)(=O)c2ccc(C3=CCCC3)cc2O[C@@H]1CN(C)C(=O)c1cccnc1 | -29.3[16.7 µM] | 12.4
24 | Cc1ccc(S(=O)(=O)N(C)C[C@H]2Oc3c(NC(=O)C4CCCCC4)cccc3C(=O)N([C@@H](C)CO)C[C@H]2C)cc1 | -70.0[16.7 µM] | 45.7
25 | COc1ccc(-c2cnc3c(c2)C(=O)N([C@@H](C)CO)C[C@@H](C)[C@@H](CN(C)C)O3)cc1 | -4.4[16.7 µM] | -13.4
26 | C[C@H]1CN([C@@H](C)CO)C(=O)c2cc(-c3cccc(F)c3)cnc2O[C@@H]1CN(C)C(=O)C1CCC1 | 3.0[16.7 µM] | -3.6
27 | O=C(C[C@H]1CC[C@@H](NC(=O)c2cnccn2)[C@H](CO)O1)NCc1ccccc1F | -0.6[16.7 µM] | -12.6
28 | COc1ccc(NC(=O)N(C)C[C@@H]2Oc3c(NC(=O)C4CCCCC4)cccc3C(=O)N([C@@H](C)CO)C[C@@H]2C)cc1 | -7.4[16.7 µM] | 1.2
29 | O=C1N(Cc2ccccc2)Cc2ccccc2[C@H]2OC(c3ccc(OCCCO)cc3)=N[C@@]12CCS(=O)(=O)c1ccccc1 | -6.0[16.7 µM] | -2.8
30 | Cc1noc(C)c1S(=O)(=O)N(C)C[C@@H]1Oc2ccc(NC(=O)C3CCCCC3)cc2CC(=O)N([C@H](C)CO)C[C@H]1C | -3.6[16.7 µM] | 0.6

# Compound profiles, from the list above. Screens in order: Env fusion inh | UUG fidelity
# `C[C@@H]1CN([C@@H](C)CO)S(=O)(=O)c2ccc(C3=CCCC3)cc2O[C@@H]1CN(C)C(=O)c1cccnc1` reads -29.3[16.7 µM] | 12.4
# `C[C@H](CO)N1C[C@H](C)[C@H](CN(C)C(=O)NC2CCCC2)Oc2cc(-c3cncnc3)ccc2S1(=O)=O` reads -14.1[16.7 µM] | -16.9

# Further results:
no. | molecule | Env fusion inh | UUG fidelity
31 | C[C@H]1CCCCO[C@@H](CN(C)Cc2ccc3c(c2)OCO3)[C@@H](C)CN([C@@H](C)CO)C(=O)c2cc(NC(=O)C3CCCCC3)ccc2O1 | -81.7[16.7 µM] | 10.2
32 | CC(=O)N(C)C[C@@H]1Oc2ncc(/C=C/c3ccccc3)cc2C(=O)N([C@@H](C)CO)C[C@H]1C | -12.5[16.7 µM] | 20.3
33 | C[C@@H]1CN([C@H](C)CO)S(=O)(=O)c2ccc(-c3ccccc3F)cc2O[C@@H]1CN(C)Cc1ccncc1 | 6.3[16.7 µM] | -16.1
34 | CCS(=O)(=O)NCC[C@@H]1CC[C@@H](NC(=O)Nc2cc(Cl)cc(Cl)c2)[C@H](CO)O1 | 7.3[16.7 µM] | -10.4
35 | COc1ccc(S(=O)(=O)N(C)C[C@H]2OCCCC[C@H](C)Oc3ccc(NC(=O)Nc4cccc5ccccc45)cc3C(=O)N([C@H](C)CO)C[C@@H]2C)cc1 | -17.1[16.7 µM] | -10.8
36 | C[C@H]1CN([C@@H](C)CO)S(=O)(=O)c2ccc(-c3cncnc3)cc2O[C@H]1CN(C)C(=O)Cc1ccccc1 | -8.9[16.7 µM] | -6.8
37 | Cc1ccc(S(=O)(=O)N(C)C[C@@H]2Oc3c(NC(=O)Nc4c(C)noc4C)cccc3C(=O)N([C@@H](C)CO)C[C@H]2C)cc1 | -21.8[16.7 µM] | -5.0
38 | C[C@@H]1CCCCO[C@H](CN(C)C(=O)c2ccccc2)[C@H](C)CN([C@@H](C)CO)C(=O)c2cc(NC(=O)Nc3ccc(C(F)(F)F)cc3)ccc2O1 | 30.3[16.7 µM] | 2.0
39 | C[C@H](CO)N1C[C@H](C)[C@H](CN(C)CC2CCCCC2)Oc2ncc(-c3ccc(F)cc3)cc2C1=O | -17.9[16.7 µM] | 3.1
40 | C[C@@H]1CN([C@@H](C)CO)C(=O)c2cc(NS(=O)(=O)c3ccc(F)cc3)ccc2O[C@@H](C)CCCCO[C@@H]1CN(C)Cc1ccccc1 | 2.0[16.7 µM] | 47.7
41 | C[C@H]1CCCCO[C@H](CN(C)C)[C@@H](C)CN([C@@H](C)CO)C(=O)c2cc(NC(=O)Nc3ccccc3)ccc2O1 | -33.9[16.7 µM] | -8.6
42 | C[C@@H]1CCCCO[C@@H](CN(C)Cc2ccncc2)[C@@H](C)CN([C@@H](C)CO)C(=O)c2cc(NC(=O)CCCN(C)C)ccc2O1 | 13.7[16.7 µM] | 12.6
43 | COCC#Cc1ccc2c(c1)O[C@@H](CN(C)C(=O)c1ccccc1)[C@H](C)CN([C@@H](C)CO)S2(=O)=O | 2.8[16.7 µM] | 24.6
44 | CCC(=O)N[C@@H]1CC[C@@H](CCNS(=O)(=O)c2ccc(Cl)cc2)O[C@H]1CO | -15.5[16.7 µM] | 9.1
45 | C[C@H](CO)N1C[C@H](C)[C@@H](CN(C)C(=O)CN(C)C)Oc2cc(C#C[C@@H](C)O)ccc2S1(=O)=O | 19.5[16.7 µM] | -8.6
46 | COc1ccc(S(=O)(=O)Nc2ccc3c(c2)C(=O)N([C@@H](C)CO)C[C@@H](C)[C@H](CN(C)S(=O)(=O)c2cccs2)O3)cc1 | 13.7[16.7 µM] | 7.9
47 | C[C@@H]1CN([C@H](C)CO)C(=O)c2cc(NC(=O)Nc3cccc4ccccc34)ccc2O[C@H]1CN(C)S(=O)(=O)c1ccccc1 | 3.5[16.7 µM] | 2.1
48 | C/C=C/c1ccc([C@@H]2[C@@H](C#N)N(C(=O)NC3CCCCC3)[C@@H]2CO)cc1 | -15.7[16.7 µM] | 11.5
49 | COc1ccccc1NC(=O)N[C@H]1C=C[C@@H](CC(=O)N[C@H](C)c2ccccc2)O[C@H]1CO | 94.4*[16.7 µM] | -3.9
50 | C[C@H](CO)N1C[C@H](C)[C@H](CN(C)C(=O)Nc2ccc3c(c2)OCO3)Oc2ccc(NC(=O)Cc3cn(C)c4ccccc34)cc2CC1=O | -18.9[16.7 µM] | -3.8
51 | C[C@@H]1CN([C@@H](C)CO)C(=O)c2cc(-c3ccc(C#N)cc3)cnc2O[C@H]1CN(C)C(=O)Nc1ccccc1 | 5.3[16.7 µM] | -6.2
52 | CC(C)NC(=O)N(C)C[C@H]1OCCCC[C@H](C)Oc2ccc(NC(=O)Nc3ccc(C(F)(F)F)cc3)cc2C(=O)N([C@H](C)CO)C[C@H]1C | -21.2[16.7 µM] | 4.9
53 | C[C@H]1CN([C@@H](C)CO)C(=O)Cc2cc(NS(=O)(=O)c3cn(C)cn3)ccc2O[C@H]1CN(C)Cc1ccc(Oc2ccccc2)cc1 | -9.9[16.7 µM] | 7.6
54 | C[C@H](CO)N1C[C@H](C)[C@H](CN(C)S(=O)(=O)c2ccc(F)cc2)Oc2cc(C3=CCCCC3)ccc2S1(=O)=O | 41.9[16.7 µM] | -7.7
55 | Cc1ccc(S(=O)(=O)NCC[C@H]2CC[C@H](NC(=O)CCN3CCCCC3)[C@H](CO)O2)cc1 | ? | 2.2
56 | O=C(C[C@H]1C[C@@H]2c3cc(NC(=O)Nc4ccccc4)ccc3O[C@@H]2[C@H](CO)O1)NC1CCCC1 | 11.7[16.7 µM] | 13.3
57 | C[C@H]1CN([C@@H](C)CO)C(=O)c2cc(NS(=O)(=O)c3cccs3)ccc2O[C@@H]1CN(C)S(=O)(=O)c1ccc(F)cc1 | -8.9[16.7 µM] | 2.0
58 | C[C@@H]1CN([C@H](C)CO)S(=O)(=O)c2ccc(Br)cc2O[C@@H]1CN(C)C(=O)C1CCCCC1 | -35.8[16.7 µM] | -5.2
59 | O=C(N[C@H]1CC[C@H](CC(=O)N2CCOCC2)O[C@@H]1CO)c1ccc2c(c1)OCO2 | 5.5[16.7 µM] | -20.8
60 | CO[C@@H]1CN(C)C(=O)c2ccc(NC(=O)c3ccno3)cc2OC[C@H](C)N(S(C)(=O)=O)C[C@H]1C | -7.1[16.7 µM] | -12.1
61 | O=C(NCC[C@@H]1CC[C@@H](NS(=O)(=O)c2cccc(F)c2)[C@H](CO)O1)C1CCCCC1 | -17.4[16.7 µM] | -0.4
62 | Cc1ccc(-c2cnc3c(c2)C(=O)N([C@H](C)CO)C[C@@H](C)[C@H](CN(C)CC2CCCC2)O3)cc1 | -3.9[16.7 µM] | -10.7
63 | C[C@@H]1CN([C@@H](C)CO)C(=O)Cc2cc(NC(=O)Cn3cnnn3)ccc2O[C@H]1CN(C)Cc1ccc2c(c1)OCO2 | 9.9[16.7 µM] | 25.0
64 | C[C@@H]1CCCCO[C@@H](CN(C)S(=O)(=O)c2ccc(Cl)cc2)[C@H](C)CN([C@@H](C)CO)C(=O)c2cc(NS(=O)(=O)c3cccs3)ccc2O1 | -30.1[16.7 µM] | -6.5
65 | Cc1ccc(S(=O)(=O)Nc2cccc3c2O[C@H](CN(C)Cc2ccc(-c4ccccc4)cc2)[C@H](C)CN([C@H](C)CO)C3=O)cc1 | 27.8[16.7 µM] | 15.6
66 | C[C@@H]1CN([C@H](C)CO)S(=O)(=O)c2ccc(C3=CCCCC3)cc2O[C@@H]1CN(C)C(=O)C1CCC1 | 23.6[16.7 µM] | 15.4
67 | CN1C(=O)c2cc(NC(=O)c3ccc(F)cc3)ccc2OC[C@H]2O[C@H](CC(=O)O)CC[C@H]21 | -5.2[16.7 µM] | 4.2
68 | O=C(NCC[C@@H]1CC[C@@H](NC(=O)c2ccccc2F)[C@H](CO)O1)c1cnccn1 | -0.2[16.7 µM] | -8.2

# This is a subset; the hit share may differ from the screen's.
